KCNQ2 inh: KCNQ2 potassium channel inhibitors, primary screen, cell-based, CHO-K1, FluxOR thallium flux, B-score (AID 2156); Potassium voltage-gated channel subfamily KQT member 2 (Rattus norvegicus), O88943; 20 min; stronger effect = lower value; only compounds with negative scores are shown here; some inactives read as strong as hits; B-score at 10 µM; hit rate 1.1% among 310,000;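 active = fluorescence ratio B-score at most minus 3 library SDs, with starting brightness B-score within 2 library SDs, cut at about -5.5 in these data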
Target sequence (O88943 whole entry, looked up): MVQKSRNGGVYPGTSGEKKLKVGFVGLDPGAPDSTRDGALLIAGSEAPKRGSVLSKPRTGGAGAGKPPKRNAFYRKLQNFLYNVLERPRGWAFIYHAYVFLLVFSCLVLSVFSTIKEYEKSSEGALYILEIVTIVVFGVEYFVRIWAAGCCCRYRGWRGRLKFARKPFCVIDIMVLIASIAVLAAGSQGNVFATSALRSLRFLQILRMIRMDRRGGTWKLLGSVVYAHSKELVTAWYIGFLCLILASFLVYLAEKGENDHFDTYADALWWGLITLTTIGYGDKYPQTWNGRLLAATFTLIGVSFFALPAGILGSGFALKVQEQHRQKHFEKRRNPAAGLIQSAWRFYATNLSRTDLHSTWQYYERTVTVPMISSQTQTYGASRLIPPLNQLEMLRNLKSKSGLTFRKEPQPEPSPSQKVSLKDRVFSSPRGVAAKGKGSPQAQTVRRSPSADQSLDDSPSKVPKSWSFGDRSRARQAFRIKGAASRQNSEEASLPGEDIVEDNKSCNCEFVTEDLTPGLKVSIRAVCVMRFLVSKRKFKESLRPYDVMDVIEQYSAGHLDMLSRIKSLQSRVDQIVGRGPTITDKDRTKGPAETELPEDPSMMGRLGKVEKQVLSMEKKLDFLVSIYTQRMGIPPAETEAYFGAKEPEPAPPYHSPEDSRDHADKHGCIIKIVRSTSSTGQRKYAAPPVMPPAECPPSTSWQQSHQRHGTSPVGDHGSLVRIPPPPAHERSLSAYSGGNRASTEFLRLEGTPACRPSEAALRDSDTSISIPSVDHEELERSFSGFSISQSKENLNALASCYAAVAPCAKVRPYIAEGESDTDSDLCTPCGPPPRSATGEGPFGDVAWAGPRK
KCNQ2 inh baseline: recorded beside KCNQ2 inh, whose call it bears; B-score; measured here: initial fluorescence intensity artifact check;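 brightness before thallium and not channel activity; 0 = typical well and far values either way flag optical interference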
An asterisk follows results filed as active; i = inactive. This is a subset (hit frequency here may not be typical).

SMILES	KCNQ2 inh	KCNQ2 inh baseline
CCOc1ccc(N2C(=O)CC(NCCNc3ccc(C(=O)c4cccs4)cc3)C2=O)cc1 (configuration not stated)	i	0.18
COC(=O)c1ccc2c(c1)N(Cc1nc(-c3ccc(Cl)cc3)oc1C)C(=O)C1CCCN21 (configuration not stated)	i	-0.05
CN1CCN(C(=O)CSc2nnc(COc3ccccc3)o2)CC1	i	1.8
Cc1ccc(S(=O)(=O)Cc2ccc(C(=O)OCc3ccccc3)cc2)cc1	i	-1.8
Cc1ccc(C(=O)NCCc2cccc(Cl)c2)cc1[N+](=O)[O-]	i	-1.2
Cc1ccc(-c2nc(CS(=O)(=O)CC(=O)NCCCN3CCOCC3)c(C)o2)cc1	i	0.51
c1ccc2nc(-c3nc4ccccc4o3)ccc2c1	i	-0.34
CC(C)c1ccc(C2CC(=O)c3cnc(N4CCc5ccccc5C4)nc3C2)cc1 (configuration not stated)	i	-1.1
CCN(CC)S(=O)(=O)c1ccc(C(=O)OCC(=O)N2CCOCC2)cc1	i	1.4
COc1ccc(C(=O)N[C@H](C(=O)OCc2nc3ccsc3c(=O)[nH]2)C(C)C)cc1	i	1
CCSc1nsc(NC(=O)Nc2cccc(C(C)=O)c2)n1	i	1.2
NC(=O)C1CCN(c2ncccc2[N+](=O)[O-])CC1	i	-0.44
Cc1ccc(S(=O)(=O)Nc2ccc(NC(=O)/C=C/C(=O)O)cc2)cc1	i	0.12
COc1cc(C)c(Cl)cc1S(=O)(=O)NC1CC(C)(C)NC(C)(C)C1	i	0.49
O=C1CCCN1c1cc(Cl)cc(Cl)c1	i	0.95
COc1ccc(OC(C)C(=O)Nc2cccc([N+](=O)[O-])c2)cc1 (configuration not stated)	i	0.3
O=C(c1n[nH]c(=O)c2ccccc12)N1CCN(Cc2ccc3c(c2)OCO3)CC1	i	0.01
COC(=O)C1(C)NC(=O)c2ccccc2N1 (configuration not stated)	i	-0.49
Cc1ccc2c(c1)N=C(c1ccccc1)CC(C(Cl)Cl)=N2	i	-0.28
CCCCCCCN1CCC(=O)N([C@H](CO)CC(C)C)CC1	i	0.49
CC(NC(=O)CNC(=S)N(Cc1cccs1)C1CCCC1)c1ccccc1 (configuration not stated)	i	0.03
CN(C(=O)COc1cc(=O)n(C)c2ccccc12)c1cccc(Cl)c1	i	-0.45
OCC1CCCN(C(=S)Nc2ccc(Oc3ccccc3)cc2)C1 (configuration not stated)	i	1.8
COC(=O)C1=C(C(C)=O)C(c2ccc(C)cc2)n2nnnc2N1 (configuration not stated)	i	1.9
CC1=CC(C)=Nc2ccc(C)cc2N1	i	-0.49
N/C(COc1ccc(Cl)cc1Cl)=N\NS(=O)(=O)c1ccccc1	i	-0.58
CCc1ccccc1N(CC(=O)NCc1ccco1)C(=O)c1snc(C(N)=O)c1N	i	1.1
Clc1ccc(-c2cn3c(n2)-c2ccccc2C3)cc1Cl	i	0.12
O=C(c1cc(-c2cccc(O)c2)on1)N1CCN(C(c2ccccc2)c2ccccc2)CC1	i	-2
COC(=O)c1nc(NC(=O)c2cc(OC)c(OC)c(OC)c2)n[nH]1	i	0.38
Cc1cccc(OCc2nnc(SCc3nc4ccccc4c(=O)[nH]3)o2)c1	i	3
O=C(Cn1nc(-c2ccccc2)ccc1=O)Nc1ccc(N2CCN(C(=O)c3ccccc3)CC2)cc1	i	-0.71
COc1ccc(NC(=O)CCc2nnc3ccc(NCc4ccc5c(c4)OCO5)nn23)cc1	i	-0.07
O=C(COc1coc(CN2CCc3ccccc3C2)cc1=O)Nc1ccc([N+](=O)[O-])cc1	i	-0.13
N#C/C(=C\c1ccc(Cl)cc1)c1nc(-c2ccco2)cs1	i	-0.43
CCN(CC)S(=O)(=O)c1ccc(NC(=O)C2COc3ccccc3O2)cc1 (configuration not stated)	i	1.2
O=C(O)C(Cc1ccccc1)N1C(=O)C2CCCCC2C1=O (configuration not stated)	i	-0.18
COc1cc(NC(=O)Nc2cccc([N+](=O)[O-])c2)cc(OC)c1	i	-0.3
COc1ccc(N=C2CC(C)(C)CC(=O)/C2=C(/O)c2ccccc2)cc1	i	0.04
O=C(c1ccco1)N1CCN(C(=O)C(c2ccccc2)c2ccccc2)CC1	i	-0.05
COc1cc(OC)cc(C(=O)Nc2nc(CC(=O)NCc3ccc(F)cc3)cs2)c1	i	-0.09
CCOC(=O)c1sc(NC(=O)/C=C/c2ccccc2)nc1C	i	-1.5
O=C(CSc1ncccn1)N1CCc2ccccc2C1	i	0.5
COc1ccc(NC(=O)Cn2nnc3sc4c(c3c2=O)CC(C)(C)OC4)cc1	i	-0.98
Cn1ncc([N+](=O)[O-])c1C(=O)N/N=C/c1ccc(F)cc1	i	-0.52

Part of the list above in order of count of non-hydrogen atoms, descending:
SMILES	KCNQ2 inh	KCNQ2 inh baseline
O=C(Cn1nc(-c2ccccc2)ccc1=O)Nc1ccc(N2CCN(C(=O)c3ccccc3)CC2)cc1	i	-0.71
COc1ccc(NC(=O)Cn2nnc3sc4c(c3c2=O)CC(C)(C)OC4)cc1	i	-0.98
COc1cc(NC(=O)Nc2cccc([N+](=O)[O-])c2)cc(OC)c1	i	-0.3

Following part
SMILES	KCNQ2 inh	KCNQ2 inh baseline
Cc1ccccc1-c1nnn(CC(=O)c2ccc(S(=O)(=O)N3CCCC3)cc2)n1	i	0.02
CCC(=O)Nc1ccc(C(=O)Nc2ccc3c(c2)C(=O)N(CC2CCCO2)C3=O)cc1 (configuration not stated)	i	-0.45
CC/C(=N\Nc1ccccc1[N+](=O)[O-])c1ccc(O)cc1	i	-0.06
CC1CCCN(C(=O)N2c3ccccc3Sc3ccccc32)C1 (configuration not stated)	-6.9*	0.41*
O=C(c1cccnc1Cl)N(Cc1ccccc1)Cc1ccccc1	i	0.23
O=C(CCC(=O)N(CC(=O)NC1CCCCC1)c1ccc2c(c1)OCCO2)Nc1ccccn1	i	-1.1
O=c1c(-c2nnc(SCc3ccc(Cl)cc3Cl)o2)cccn1Cc1ccccc1	i	-0.94
COc1ccc(/C=C/c2nnc(NC(=O)c3ccco3)s2)cc1	i	0.38
O=C(C1CCCC1)N1CCC(CC2CC(c3ccc(Cl)cc3)=NO2)(C(=O)NCC2CCCCC2)CC1 (configuration not stated)	i	-0.47
COc1ccc(C2c3[nH]c4ccccc4c3CCN2Cc2ccoc2)c(F)c1 (configuration not stated)	i	-0.26
NS(=O)(=O)c1ccc(NN=C2CCN(Cc3ccccc3)CC2)c([N+](=O)[O-])c1	i	0.57
O=C1/C(=C\c2ccc(O)cc2)SC(=S)N1/N=C/c1ccc(O)cc1	i	-0.15
CCC(=O)c1ccc(N2CCN(C(=O)c3ccc(Br)cc3)CC2)c(F)c1	i	-0.14
N#C/C(=C(/O)c1ccccc1F)c1nc2cc(C(F)(F)F)ccc2s1	i	0.2
Cc1ccc(Nc2nc(Cl)nc(N(C)C#N)n2)cc1	i	-0.19
CC(=O)Nc1ccc(NC(=O)COc2ccccc2C(=O)Nc2cccc(Cl)c2Cl)cc1	i	0.57
COc1ccc(OCC(=O)Nc2ccc(N3CCOCC3)c(Cl)c2)cc1	i	-0.07
Cc1ccc(NC(=O)Nc2ccc(F)cc2)nc1	i	2.6
CCC1C(=O)NCCN1C(=O)c1ccc2nc(Cc3cccc(Cl)c3)oc2c1 (configuration not stated)	i	-0.41
COc1ccc(C(CNC(=O)C(C)c2ccc3cc(OC)ccc3c2)N(C)C)cc1 (configuration not stated)	i	0.03
O=C(O)CSCCc1ccccn1	i	-1.7
COCCn1c(=O)[nH]c(=O)c2c1nc(-c1cc(Br)c3c(c1)OCO3)n2Cc1ccccc1	i	-0.5
Cc1cc(C(=O)N2CCCC(N3CCN(c4ccc(F)cc4)CC3)C2)c(C)o1 (configuration not stated)	i	-0.41
Cc1nc(-c2ccccc2)sc1C(=O)Nc1ccccc1F	i	-0.83
O=C(CCCSc1nc2ccccc2[nH]1)NCc1ccccc1	i	0.23
O=C(Nc1ccc2c(c1)nc1n2CCOC1)c1ccco1	i	1.5
CCn1cc(C(=O)O)c(=O)c2cc(F)c(N3CCN(C(=S)NC(=O)c4cccc(C)c4)CC3)cc21	i	-0.24
CC1CCc2sc(C(=O)NN)cc2C1 (configuration not stated)	i	-0.19
COC(=O)c1sc2nc(SCc3cccc(Cl)c3)n(N)c(=O)c2c1C	i	-0.31
O=C(COC(=O)c1c2c(nc3ccccc13)CCCC2)Nc1ccc2c(c1)OCO2	i	1.9
Cc1ccc(/C=C/c2ccc(N(C)C)cc2)[n+](C)c1	i	6.9
O=C(/C=C/c1cccc([N+](=O)[O-])c1)N1CCN(Cc2ccccc2)CC1	i	0.29
COCc1nnc(NC(=O)c2cccc(NC(=O)c3ccccc3)c2)s1	i	-1.3
Cc1cccc(NC(=O)N2CCN(Cc3ccc(Cl)cc3)CC2)c1	i	0.66
CC(c1cccnc1)N(C(=O)Nc1ccccc1)C1CCCCC1 (configuration not stated)	i	3.1
CCOC(=O)c1ccc(NC(=O)Oc2ccccc2)cc1	i	-0.73
NC(=O)c1nsc(C(=O)N(CC(=O)NC2CCCC2)c2cccc(C(F)(F)F)c2)c1N	i	-0.63
COc1ccc(OC)c(CC(NC(C)=O)C(=O)NC2CCN(c3cc(C)nc4ncnn34)CC2)c1 (configuration not stated)	i	2.1
CC(=NCCN1CCNCC1)C1=C(O)CC(C)(C)CC1=O	i	-0.35
CCOC(=O)C(C)Sc1nnc2n1C(C)(C)Cc1ccccc1-2 (configuration not stated)	i	-1.9
O=C(CCSc1ccccn1)Nc1ccc(Br)cc1	i	1.6
O=[N+]([O-])c1ccc(-c2csc(Nc3ccccc3)[n+]2Cc2ccccc2)cc1	i	-0.5
N#CCSc1nc2ccccc2c(=O)n1CCC(=O)NCCc1ccccc1	i	-0.12
CN(C(=O)c1ccc(-c2ccccc2)cc1)C1CCCCC1	i	0.01
COc1cc(Cl)c(C)cc1NC(=O)COc1cc(C)nc(C(C)C)n1	i	0.55

Full records, looked up by structure:
O=[N+]([O-])c1ccc(-c2csc(Nc3ccccc3)[n+]2Cc2ccccc2)cc1 as listed: KCNQ2 inh = i; KCNQ2 inh baseline = -0.5
CC(c1cccnc1)N(C(=O)Nc1ccccc1)C1CCCCC1 (configuration not stated) as listed: KCNQ2 inh = i; KCNQ2 inh baseline = 3.1

Quoted at random: 4 entries already listed.
SMILES	KCNQ2 inh	KCNQ2 inh baseline
NC(=O)c1nsc(C(=O)N(CC(=O)NC2CCCC2)c2cccc(C(F)(F)F)c2)c1N	i	-0.63
CCOC(=O)c1ccc(NC(=O)Oc2ccccc2)cc1	i	-0.73
CN(C(=O)c1ccc(-c2ccccc2)cc1)C1CCCCC1	i	0.01
O=C(/C=C/c1cccc([N+](=O)[O-])c1)N1CCN(Cc2ccccc2)CC1	i	0.29

The listing continues:
SMILES	KCNQ2 inh	KCNQ2 inh baseline
CCC(C)(C(=O)NC1CCCCC1)N(C(=O)C1CCC(=O)N1)c1ccccc1 (configuration not stated)	i	0.72
Oc1ccc(Cl)cc1C=Nc1ccc2c3c(cccc13)CC2	i	-0.18
O=C1C2C3C=CC(C4CC34)C2C(=O)N1Cc1ccco1 (configuration not stated)	i	0.12
Cc1nc2ccccn2c1C(=O)OCC#N	i	-1.1
O=C(c1ccc(C(F)(F)F)cc1)n1ccc(-c2cccs2)n1	i	2.8
CCOc1ccc(N(CC(=O)NC2CCCC2)S(=O)(=O)c2c(C)noc2C)cc1	i	-1
Cc1cccc(N2CC(C(=O)NCCC3=CCCCC3)CC2=O)c1C (configuration not stated)	i	0.84
Cc1ccc(F)c([C@H]2C3C=CCC(c4ccccc4)C3C(=O)N2Cc2ccccc2)c1 (some centres not stated)	i	-1.4
O=C(Cc1c(F)cccc1Cl)N1CCN(C(=O)c2ccco2)CC1	i	0.37
Cc1cccc(NC(=O)CCc2c(C)nn(-c3ccc(N4CCOCC4)nn3)c2C)c1	i	1.5
Cc1ccc2nc(/C(C#N)=C/c3ccc(O)c(O)c3)[nH]c2c1	i	1.9
Cc1ccc(C(C)C)c(OCc2ccc(-c3nnco3)cc2)c1	i	0.51
CN(C(=O)c1ccnn1C)C1CCCN(Cc2ccccc2F)C1 (configuration not stated)	i	0.47
Cc1nc2ccc(Cl)cc2c(-c2ccccc2)c1C(=O)N(C)C	i	0.9
O=C1C(=O)N(O)C2CCCCC2N1O (configuration not stated)	i	0.42
COc1ccccc1CNC(=O)CSc1ccc(-c2cccs2)nn1	i	-1.9
Cc1nc2c(-c3ccc(F)cc3)c(C)nn2c(C)c1CCC(=O)Nc1ccccc1F	i	-0.01
Cc1ncc(C[n+]2csc(CCOC(=O)CC34CC5CC(CC(C5)C3)C4)c2C)c(N)n1	i	1.1
O=C(N=Nc1c(O)[nH]c2ccc(F)cc12)C1COc2ccccc2O1 (configuration not stated)	i	-0.04
CCOC(=O)c1c(C)nc(C)c(C(=O)OCC)c1-c1ccco1	i	-0.91
COC(=O)c1cc(Cl)c(NC(=O)C(C)C)cc1OC	i	0.11
Cc1ccccc1Nc1nnc(SCC(=O)NC2CCCc3ccccc32)s1 (configuration not stated)	i	0.01
Cc1ccc(C)n1-n1cnc2sc3c(c2c1=O)CCCCC3	-7.5*	0.27*
C=CCn1c(N)c(C(=O)OC(C)(C)C)c2nc3ccccc3nc21	i	-0.51
CCOC(=O)c1c(C)[nH]c(C(=O)N2CCCC(C(=O)c3ccccc3OC)C2)c1C (configuration not stated)	i	-0.2
O=C(CNCCO)Nc1ccc(F)c(Cl)c1	i	-0.1
C=C(C)[C@@H]1CCC2(C(=O)O)CC[C@]3(C)[C@H](CC[C@@H]4[C@@]5(C)CCC(=O)C(C)(C)[C@@H]5CC[C@]43C)[C@@H]12 (some centres not stated)	i	-0.18
